# Sa ugtP lethal – growth inhibition of ugtP-null S. aureus, primary screen, RN4220 ugtP deletion, OD600; actives 0.54% (n = 330,000); growth inhibition, % (concentration not given with the values); 16 h; some inactives read as strong as hits; AID 1259309, 2017;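 active = z-score under -3 and OD600 up to 0.15 on both plates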;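 note: plate controls were untreated wells for no effect and antibiotic for full effect; wells of about 80 µL received 100 nL stock; the first replicate is given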
# Mtb hypoxia rep – PubChem AID 1159583; fluorescence inhibition, % (test concentration not listed); actives 0.1% (n = 300,000); M. tuberculosis hypoxia-regulated fluorescent reporter, fluorescence;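 active = 35 to 45% if threefold the growth effect, above 45% if 1.5-fold the growth effect; inactive = the rest, general growth blockers included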;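 note: wells of about 50 µL received 100 nL stock; 0% = vehicle wells and 100% = reference inhibitor wells; whole bacteria with a GFP reporter of the hypoxia response; strong numbers were not always called active; many hits fall short of the cut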
# BJeLR viability – MLPCN primary cell-based screen for lethality selective to Ras in HRASV12 cells; BJeLR (HRASV12) viability, CellTiter-Glo ATP luminescence, 48 h; reference of the scale not given here; inhibition, % (no concentration beside the values); actives 0.17% (n = 300,000); AID 1554, 2009;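 active = replicate mean above 50%; inconclusive = above 50% but judged a plate artefact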;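 note: 50 nL library stock added to about 25 µL; numbers are from one replicate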
# Sa RN4220 lethal – growth inhibition of S. aureus RN4220, primary screen, OD600; 16 h; inhibition, % (concentration not given with the values); actives 0.33% (n = 330,000); AID 1259311, 2017;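 active = z-score of -3 or lower and OD600 up to 0.18 on both plates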;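 note: plate controls were untreated cells for no effect and reference antibiotic for full effect; stock transfer was 100 nL into about 80 µL; one replicate is shown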
# Autofluor counter – compound fluorescence in toxin protease inhibitor counterscreen; compound autofluorescence counterscreen, microsphere flow cytometry; active compounds read high; fluorescence intensity (concentration not given with the values); actives 3.1% (n = 360,000); AID 624483;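 active = at least 3 SD above the mean of all compounds, about 16000 in these data; inconclusive = too few beads counted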;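 note: 100 nL of 1 mM stock went into each well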
# PrP 5UTR inh – inhibition of PrP 5' UTR reporter expression; inhibition, % (concentration not given with the values); actives 0.35% (n = 340,000); cell-based PrP 5' UTR mRNA reporter, plate reader;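 active = every replicate at 50% or more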;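 note: 0 = median of the neutral control wells; tested in H4 reporter cells; numbers are from one replicate; inactives centre near -14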
# Mtb hypoxia rep growth – second read-out of Mtb hypoxia rep, no call of its own (marks repeat the call); growth inhibition, %; measured here: M. tuberculosis growth (absorbance);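 0% = vehicle and 100% = reference antibiotic; read after six days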
# * = called active by the depositor; ? = inconclusive; nt = not tested or not shown.
SMILES,Sa ugtP lethal,Mtb hypoxia rep,Mtb hypoxia rep growth,BJeLR viability,Sa RN4220 lethal,Autofluor counter,PrP 5UTR inh
CCN(c1cccc(C)c1)S(=O)(=O)c1ccc2[nH]c(=O)c(=O)[nH]c2c1,-3.4,10.4,11.6,-6.3,5.1,21312*,-6.6
CC1CC(=NNC(=O)c2cccc(F)c2)c2ccc(O)cc2C1 (stereo not given),-1.6,1.6,5.5,nt,2.6,nt,nt
COc1cc2c(cc1OC)C(c1ccccc1)N(C(=O)c1ccccc1F)CC2 (stereo not given),4.9,4.8,2.1,3.4,5.4,3488,-14.0
Cc1c(S(=O)(=O)N(C)C2CCCCC2)c(=O)n(C)c(=O)n1C,2.2,14.7,9.3,-3.0,5.9,?,-126.1
O=C(c1ccco1)c1cn(CC(=O)N2CCCCCC2)c2ccccc12,nt,nt,nt,9.1,nt,4615,-0.1
Fc1ccc(Cn2nnc(-c3ccc(Cl)cc3)n2)cc1,5.6,16.8,19.0,-2.6,1.0,3683,-19.5
O=C(O)C1CC(O)CN1S(=O)(=O)c1cccs1 (stereo not given),11.4,-1.1,-3.0,-8.5,3.4,4821,-31.1
Cc1[nH]c(C)c2c(=O)n(Cc3ccc(Cl)cc3)ncc12,13.2,10.1,6.4,-5.0,6.9,4036,-37.7
CC(C)[C@H](NC(N)=O)C(=O)NCCc1ccc(Cl)cc1Cl,3.9,11.3,8.5,7.2,2.0,3504,-18.1
O=c1[nH]c(=O)n(Cc2ccccc2)c(O)c1/C=N/NCCO,5.8,-5.8,-5.5,-3.5,3.8,nt,nt
COc1ccccc1NC(=O)CN1CCN(CC(=O)Nc2ccc3c(c2)OCCO3)CC1,-6.3,nt,nt,nt,3.8,3000,-3.2
CC1(C)Cc2nc3sc4c(=O)n(CC(=O)NCc5ccco5)cnc4c3cc2CO1,-3.5,4.5,2.8,10.3,1.4,19965*,-54.3
CN(C)CCNc1nc(S(=O)(=O)c2ccccc2)c(Cl)s1,10.5,11.2,10.7,3.2,5.2,3978,-4.2
Fc1ccccc1/C=N/NC(=S)Nc1ccc(Cl)cc1Cl,nt,nt,nt,17.3,nt,10982,47.9
COc1cc(N)ccc1NC(=O)c1cc2ccccc2o1,2.9,10.7,6.0,7.7,4.9,4012,-78.9
Cc1ccc(N2C(=O)Cc3ccccc3C2=O)cc1,0.0,5.7,-3.8,-4.0,4.6,5642,10.5
Cc1cc(N2CCOCC2)nc2ccc(NC(=S)N3CCN(c4ccccc4)CC3)cc12,-0.6,11.6,2.7,-2.9,5.4,1902,6.4
COc1ccc(C)cc1N(C(=O)c1snc(C(N)=O)c1N)C(C(=O)NC1CCCCC1)c1ccc(C)o1 (stereo not given),2.2,-2.3,-0.8,-3.2,5.5,6152,-7.0
Cc1ccc(-c2nnn(CC(=O)N(CC(=O)NC3CCCCC3)c3cnc4ccccc4c3)n2)o1,1.5,4.3,5.1,3.1,4.7,8523,nt
CCn1nc(C)cc1C(=O)N1CCCC(Nc2ccc(F)c(F)c2)C1 (stereo not given),2.1,7.4,-1.0,-5.2,1.9,5897,-4.2
O=C(NC1CCc2ccccc21)c1cc(COc2cncc(Cl)c2)on1 (stereo not given),6.4,-5.9,-7.5,6.9,-2.1,?,-33.9
Cc1nn(CCCC(=O)Nc2c(F)cc(F)cc2Br)c(C)c1[N+](=O)[O-],11.3,12.0,5.9,7.3,4.7,5124,-13.2
N#Cc1ccc(COC(=O)CSc2nnc(N)s2)cc1,2.3,3.0,1.4,-0.1,1.8,2071,-14.5
CCc1c(C#N)c(SCc2c(C)noc2C)nc2c1C(=O)CC(C)(C)C2,nt,nt,nt,-2.3,nt,9954,10.6
COc1ccc(C(=O)NCCS(=O)(=O)N2CCCCCC2)cc1,9.1,7.1,12.3,4.9,2.8,?,-10.7
# More results:
SMILES,Sa ugtP lethal,Mtb hypoxia rep,Mtb hypoxia rep growth,BJeLR viability,Sa RN4220 lethal,Autofluor counter,PrP 5UTR inh
COc1ccc(CC(=O)NCCS(=O)(=O)N2CCN(c3ccc(F)cc3)CC2)cc1OC,3.4,16.4,3.8,10.8,1.9,5542,-25.1
Cc1ccc(S(=O)(=O)NC2=NCCC2)cc1,0.6,nt,nt,-2.2,-2.0,4438,-19.7
CCSc1ccc(-c2ccco2)nn1,11.0,-12.4,-7.7,-12.0,5.6,3383,-43.9
CC(C)C(c1nnnn1Cc1ccco1)N1CCN(c2nc3ccccc3s2)CC1 (stereo not given),2.4,nt,nt,4.5,3.7,3670,2.2
CCc1nc2sc3c(Cl)ncnc3c2c2c1CCCC2,-3.4,-0.9,-0.8,7.8,1.6,nt,nt
CC(C)NC(=O)NC(=O)CSc1ncccn1,11.3,7.6,15.1,11.6,-0.9,4177,-25.1
CC(C)N1C(=O)CCC1C(=O)NCc1ccc(F)cc1Cl (stereo not given),9.4,9.0,6.6,1.6,-0.9,2899,-11.6
COc1cc(OC)cc(C(=O)NCC(=O)OCC(=O)Nc2ncc(Cl)cc2Cl)c1,-0.9,-4.1,-4.9,5.1,-7.1,4548,-24.8
Cc1ccc2c(c1)c1ncn(CCC3=CCCCC3)c(=O)c1n2C,-2.7,10.6,5.3,7.0,-4.3,9134,-26.9
CCOC(=O)C1CCN(C(=O)CCc2c(C)nc3ncnn3c2C)CC1,1.0,9.0,2.2,5.6,-0.4,6534,-15.6
O=C(COc1ccccc1[N+](=O)[O-])N/N=C/c1ccc[nH]1,nt,nt,nt,2.8,nt,3906,-24.6
CC1CCCCC12NC(=O)N(CC(=O)NCc1ccc3c(c1)OCO3)C2=O (stereo not given),1.3,2.3,3.7,5.5,1.4,4427,-14.3
CCOC(=O)N1CCN(S(=O)(=O)c2cccc3cccnc23)CC1,1.8,5.9,3.6,-2.4,5.8,3043,0.0
Cn1c(SCC(=O)c2ccccc2)nnc1-c1ccncc1,5.5,9.8,6.2,-5.3,9.9,4660,-7.1
CCOc1ccc(Nc2nc(N3CCCC3)nc(N3CCN(c4ccc(OC)cc4)CC3)n2)cc1,9.8,5.9,2.0,-27.1,4.3,3974,-11.3
CC(C)Sc1nc2c(c(=O)n(C)c(=O)n2C)n1C,3.0,-5.1,8.8,1.0,4.2,7433,-17.0
CCOc1ccc(/C=C2/Sc3ccc(C(=O)N4CCOCC4)cc3N(C)C2=O)cc1OC,2.0,3.7,-2.8,7.0,4.6,5409,-1.4
Cc1ccc(-n2c(C)cc(/C=N/Nc3ccc([N+](=O)[O-])cn3)c2C)c(C)c1,nt,nt,nt,2.3,nt,4240,2.0
Cc1cc(C)cc(NS(=O)(=O)c2ccc3c(c2)C(C)(C)C(=O)N3C)c1,1.8,nt,nt,1.5,7.7,4449,-11.8
CCOc1cc(C=NNC(=O)C(=O)NC2CC2)cc(Br)c1O,4.9,15.3,9.7,nt,3.9,nt,nt
O=C(CCCCCCC(=O)c1ccccc1)c1ccccc1,9.8,11.2,1.5,0.6,6.7,3167,-6.4
CCN1CCCC(OC(=O)Nc2ccccc2)C1 (stereo not given),4.5,nt,nt,8.6,0.2,4993,-16.0
Cn1cc(CN2CCC(Oc3ccc(C(=O)N4CCCC4)cc3)CC2)cn1,5.7,-3.2,-0.8,6.9,1.4,5666,-5.5
COc1ccc(/C=C(/NC(=O)/C=C/c2ccccc2)C(=O)N2CCOCC2)cc1,2.7,13.8,9.3,-7.3,4.0,2128,-12.9
COc1ccccc1NC(=O)COc1ccc(C=NNS(=O)(=O)c2ccc(C)cc2)cc1,-11.6,2.9,6.1,nt,2.5,nt,nt

# Of the compounds above, 2 contain bromine:
SMILES,Sa ugtP lethal,Mtb hypoxia rep,Mtb hypoxia rep growth,BJeLR viability,Sa RN4220 lethal,Autofluor counter,PrP 5UTR inh
Cc1nn(CCCC(=O)Nc2c(F)cc(F)cc2Br)c(C)c1[N+](=O)[O-],11.3,12.0,5.9,7.3,4.7,5124,-13.2
CCOc1cc(C=NNC(=O)C(=O)NC2CC2)cc(Br)c1O,4.9,15.3,9.7,nt,3.9,nt,nt

# (continued)
SMILES,Sa ugtP lethal,Mtb hypoxia rep,Mtb hypoxia rep growth,BJeLR viability,Sa RN4220 lethal,Autofluor counter,PrP 5UTR inh
CCCc1c(C(=O)NN=Cc2cccnc2)nnn1-c1nonc1N,7.4,8.6,12.7,nt,4.2,nt,nt
C#CCOCCOCCOCCNc1nc(N2CCN(C(=O)C(CCCCN)n3cc(C(N)CC(C)C)nn3)CC2)nc(N2CCN(C(=O)C(Cc3cc4ccccc4[nH]3)n3cc(C(N)C(C)CC)nn3)CC2)n1 (stereo not given),5.0,11.1,20.2,nt,1.8,nt,nt
O=C(CNCc1ccc(F)cc1)Nc1ccc(S(=O)(=O)N2CCOCC2)cc1,-0.4,-1.8,2.0,3.7,-0.1,5617,-16.0
N#C/C(=C/c1ccco1)C(N)=S,-6.2,-1.1,7.3,1.9,3.2,6424,-3.7
CCCCn1c(N)c(N(CC(C)C)C(=O)CCNC(=O)c2ccc(Br)cc2)c(=O)[nH]c1=O,6.3,8.1,4.9,2.5,-2.7,5276,-14.5
CN1CCn2c1nc(N1CCOCC1)nc2=O,3.5,nt,nt,-9.0,1.8,4303,-24.6
O=C(Nc1ccc(N2CCOCC2)cc1N1CCOCC1)c1ccc(Br)cc1,7.2,12.3,2.0,4.0,0.6,6277,-2.6
CCc1n[nH]c(=S)n1N=Cc1ccc(-c2ccc(Br)cc2)o1,1.1,8.8,6.9,nt,3.0,nt,nt
CCOc1ccc(CNC(=S)N/N=C/c2ccncc2)cc1,nt,nt,nt,-12.1,nt,1931,-12.2
CCCCn1c(N)c(N(CCOC)C(=O)c2cnc(C)cn2)c(=O)[nH]c1=O,-1.3,10.5,2.4,7.6,2.5,?,-10.5
CC(CCc1ccccc1)NC(=O)Cc1ccccc1 (stereo not given),14.4,14.3,15.2,-1.4,6.3,2472,-14.7
COc1ccc(-c2cc(CNC(=O)CN(C)Cc3ccccc3)on2)cc1,2.0,-1.3,9.4,1.8,-13.8,2394,-8.3
Nc1cc(C(=O)c2cccs2)ccc1Cl,-6.6,0.4,3.6,-4.6,5.8,5722,-34.3
COc1cccc(N2CCN(Cc3ccsc3)CC2)c1,0.4,10.7,9.4,-0.8,-6.0,2841,-23.2
Cc1ccc(S(=O)(=O)Nc2ncnc3sc(C)c(C)c23)cc1,-3.0,1.8,2.0,nt,12.9,nt,-23.5
CC(Cc1ccccn1)NC(=O)c1ccc(OC2CCN(CCc3ccccc3)CC2)cc1 (stereo not given),2.9,-2.6,-10.5,-1.1,0.7,7003,-35.1
COc1ccccc1N1C(=O)NC(=O)C2(Cc3cc(C)ccc3N(C)C2)C1=O (stereo not given),-4.5,-1.9,6.9,-13.9,-2.6,3159,-25.1
COc1ccc(NC(=O)Nc2ccc(C)cc2OC(F)F)cc1OC,-9.5,3.2,7.3,10.5,2.1,9148,-28.7
CCOC(=O)CC1=C(C(=O)OCC)C(c2ccc(OC)c(OC)c2)C(C#N)=C(N)O1 (stereo not given),-10.6,-3.6,6.2,6.9,-1.0,5382,-43.3
Cc1ccc(NC(=O)c2sc3ncn(CC(=O)N4CCN(c5ccccn5)CC4)c(=O)c3c2C)cc1Cl,-12.9,0.4,-4.6,-2.7,4.0,7259,-6.6
CCC(C(=O)OCC(=O)Nc1ccc(SC(F)F)cc1)c1ccccc1 (stereo not given),2.4,-1.8,-4.1,-7.1,-10.6,2576,-29.6
Cc1cc(C(=O)OCC(=O)NCc2ccccc2)c(C)o1,5.8,10.6,5.2,-11.1,9.9,3882,-26.7
CCOC(=O)c1c(C)oc2ccc(OCC(=O)C(C)(C)C)cc12,5.1,11.4,11.4,-3.0,5.9,2947,3.2
CN(NC(=O)c1ccccc1F)c1ncccc1[N+](=O)[O-],6.6,2.9,5.9,-9.8,2.5,6206,-22.7
CCC1CCc2c(sc(NC(=O)C3c4ccccc4Oc4ccccc43)c2C(N)=O)C1 (stereo not given),-9.3,5.8,-1.9,4.6,-2.4,2085,7.6
O=C(NCCCN1CCOCC1)c1cc(-c2ccc(Cl)s2)nc2ccccc12,3.8,12.6,8.8,6.2,-3.2,5786,-21.9
NC(N)=NC(N)=Nc1ccccc1,-1.5,-3.9,-12.4,nt,-2.6,3004,5.2

# Entries of single compounds from above. Order of values: Sa ugtP lethal	Mtb hypoxia rep	Mtb hypoxia rep growth	BJeLR viability	Sa RN4220 lethal	Autofluor counter	PrP 5UTR inh
# `Cc1ccc(S(=O)(=O)Nc2ncnc3sc(C)c(C)c23)cc1` is entered as -3.0	1.8	2.0	nt	12.9	nt	-23.5
# `CN(NC(=O)c1ccccc1F)c1ncccc1[N+](=O)[O-]` is entered as 6.6	2.9	5.9	-9.8	2.5	6206	-22.7

# Not a hit list; about 4% have a hit in one of these screens.
